# Assay outcomes from PubChem BioAssay.
# VDR inhibitor = blocks the human vitamin D receptor; Potency, µM, for inactives: max response, negative = inhibition, hits mostly inhibitors; hit rate 0.93% among 400,000; AID 504847; VDR-SRC2-3 peptide fluorescence polarization, 2 h; active = well fitted inhibition curve with a large enough effect; inconclusive = small, poorly fitted or top-dose-only effect, or another doubt; inactive = no such curve, though single readings can be large or run the other way; note: series mostly up to about 120 µM
# Target sequence (P11473 whole entry, looked up): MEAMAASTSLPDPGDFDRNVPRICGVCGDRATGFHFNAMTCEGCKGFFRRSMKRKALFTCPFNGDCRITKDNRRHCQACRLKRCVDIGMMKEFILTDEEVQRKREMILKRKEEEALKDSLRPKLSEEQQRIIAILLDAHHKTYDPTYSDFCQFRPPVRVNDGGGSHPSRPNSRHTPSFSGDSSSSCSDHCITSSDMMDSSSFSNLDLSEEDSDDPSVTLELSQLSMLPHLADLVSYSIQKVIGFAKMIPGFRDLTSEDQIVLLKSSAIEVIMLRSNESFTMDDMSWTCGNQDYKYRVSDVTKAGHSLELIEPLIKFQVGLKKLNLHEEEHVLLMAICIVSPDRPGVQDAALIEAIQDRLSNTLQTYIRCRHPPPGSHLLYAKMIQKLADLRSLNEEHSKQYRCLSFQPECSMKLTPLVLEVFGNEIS
#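 VDR–SRC2-3 interaction, FP format. Cmpds 23 nl via pintool, brief spin, 2 h ambient incubation.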
# Active calls of the source: *; ? = inconclusive; & = joins results of further samples. % is set by controls: 0 for no effect and ±100 for the full control effect; potency is the fitted concentration of half-maximal effect. The list is partial; rates above refer to the full screens.
SMILES	VDR inhibitor
COC1=CC(=O)OC(C)(c2ccccc2)C1 (centres undefined)	8%
COc1ccc(/C=C/C(=O)c2ccccc2)cc1Cn1nnc2ccccc21	?
COCCN(C(=O)Nc1ccc(OC)cc1OC)C1CCN(C(C)=O)CC1	10%
Cc1cc(C)c(Cn2c3ccccc3c3cnn(CC(=O)NCC(C)c4ccccc4)c(=O)c32)c(C)c1 (centres undefined)	-3%
O=C(O)c1ccc(-c2ccc(/C=C3\NC(=O)N(Cc4ccc(Cl)cc4)C3=O)o2)cc1	-9%
O=C(O)CCC(=O)N1CCC[C@H]1C(=O)O	4%
Cc1nn(C)cc1/C=N/NC(=S)Nc1ccccc1	89µM*
CC(C)CC(=O)Nc1c2c(nn1-c1ccc(F)cc1)CSC2	-24%
Cc1ccc(C(=O)COc2cc(C)nc3nncn23)cc1	-8%
CCOc1ccc(S(=O)(=O)NCC(=O)NC2CCCCC2)cc1	1%
O=S(=O)(NC1CCCC1)c1cc(F)ccc1F	7%
O=C(c1noc2c1CCCC2)N1CCCC(N2CCN(c3ccccc3F)CC2)C1 (centres undefined)	-6%

# Additional records follow.
SMILES	VDR inhibitor
COc1ccc(NC(=O)CSc2nnc(N)s2)c([N+](=O)[O-])c1	-9%
CCOc1ncccc1C(=O)Nc1cccc(S(=O)(=O)N2CCCCC2)c1	-1%
O=C(CC1NCCNC1=O)NC1Cc2ccccc2C1 (centres undefined)	-4%
CC1CC(C)CN(C(=O)c2ccc(S(=O)(=O)N3CC(C)CC(C)C3)cc2)C1 (centres undefined)	-8%
COC(=O)c1cc(OC)c(OC)cc1-n1cnc2cc(OC)c(OC)cc2c1=O	1%
COc1ccccc1C1=NN(C(=S)Nc2ccccc2)C(c2ccco2)C1 (centres undefined)	-10%
Cc1ccc(-c2ccc([C@H]3[C@@H]4C=CCC[C@@]4(C)C(=O)N3Cc3ccccc3)c(F)c2)cc1	5%
Cc1ccc(SCC(=O)N=C2NC(=O)CS2)cc1	-22%
Cn1c(Cl)nc2c1c(=O)n(Cc1cccc(Br)c1)c(=O)n2C	6%
CCCN1CCC(NC(=O)Nc2ccc(OC)c(OC)c2)CC1	6%
CCc1ccc(-c2nc(CN3CCC(C(=O)NCCc4ccc(OC)c(OC)c4)CC3)c(C)o2)cc1	16%
O=C([O-])[C@@H]1[O][Sb+]([O][Sb+]2[O][C@H]([C@H](O)CO)[C@H](O)[C@H](C(=O)[O-])[O]2)[O][C@H]([C@H](O)CO)[C@@H]1O	-15%

# Following part.
SMILES	VDR inhibitor
CCOc1ccc(NC(=O)CN2C(=O)NC(CCSC)C2=O)cc1 (centres undefined)	19%
COc1cc(C(C)=O)ccc1OCC(=O)Nc1cc(C)on1	-9%
C[C@@]12C(=O)OC(=O)[C@]1(C)C1CCC2O1	-10%
CCN(CC)CCNC(=O)C1CCCN(c2nnc(C)c3c(C)n(-c4ccc(Cl)cc4)nc23)C1 (centres undefined)	16%
COc1ccccc1C(=O)Nc1ccc2nc(SCC(=O)N(C)C)sc2c1	-13%
CC1=C(c2ccccc2)[N+](=O)C2(CCCC2)N1[O-]	-18%
Cc1cccc(C)c1NC(=O)C1CCN(S(=O)(=O)c2cccc3nsnc23)CC1	-21%
O=C(NCc1ccc(F)cc1)c1cc2ccccn2n1	-8%
CCc1noc(C)c1C(=O)Nc1nc2ccc(OC)cc2s1	-4%
CCCCCOc1ccc(C(=O)OCC(=O)Nc2cc(C)c(C)cc2[N+](=O)[O-])cc1	-1%
COc1ccc(CCNS(=O)(=O)c2ccc(N3CCCCS3(=O)=O)cc2)cc1	6%
O=c1c(-c2ccccc2)nc2cncnc2n1Cc1ccc(F)cc1	-1%

# Next entries follow:
SMILES	VDR inhibitor
CC1=C(C(=O)OCc2ccccc2)C(c2ccccc2)NC(=O)N1CCCC(=O)O (centres undefined)	-2%
O=C(Nc1nnc(Cc2ccc(Cl)cc2)s1)c1ccncc1	-18%
O=C(Nc1ccc(Br)cc1)c1ccc2c(c1)OCO2	-10%
O=C(O)c1ccccc1Nc1ccc([N+](=O)[O-])cc1C(=O)O	11%
O=C(Nc1nc(-c2cccs2)cs1)c1ccc(Cl)s1	-11%
O=C(NCc1nc(-c2ccccc2)no1)Nc1ccc(F)cc1	2%
COc1ccccc1/C=C/C(=O)OCC(=O)c1cc(C)n(C)c1C	-26%
O=C1C(=O)N(Cc2cccnc2)C(c2cccc([N+](=O)[O-])c2)/C1=C(/O)c1ccc2c(c1)OCO2 (centres undefined)	-8%
O=C(CSc1ccc(-c2ccco2)nn1)c1ccccc1	-30%
O=C(Nc1ccc(Br)cc1F)c1cccnc1	-3%
CN(Cc1nc(-c2cccnc2)no1)S(=O)(=O)c1ccc2ccccc2c1	4%
COc1cccc(C(C(=O)NCc2ccco2)N(Cc2ccco2)C(=O)Cn2nnc3ccccc32)c1 (centres undefined)	-4%

# 5 of the entries above in order of the VDR inhibitor value, descending:
SMILES	VDR inhibitor
COC1=CC(=O)OC(C)(c2ccccc2)C1 (centres undefined)	8%
CCOc1ccc(S(=O)(=O)NCC(=O)NC2CCCCC2)cc1	1%
O=C(Nc1ccc(Br)cc1)c1ccc2c(c1)OCO2	-10%
O=C(Nc1nc(-c2cccs2)cs1)c1ccc(Cl)s1	-11%
COc1ccccc1C(=O)Nc1ccc2nc(SCC(=O)N(C)C)sc2c1	-13%

# The list continues:
SMILES	VDR inhibitor
Cc1nn(C(C)(C)C)c(OC(=O)C2CCCC2)c1S(=O)(=O)c1ccccc1	-5%
CCCCC1=CC2=CC(=O)C(C)(OC(=O)CC)C(=O)C2=CN1CCc1ccccn1 (centres undefined)	-25%
CC(C)OC(=O)c1cc(C(=O)c2cc(F)ccc2O)coc1=N	-1%
COc1ccc(C(C(=O)NC2CCCC2)N(C(=O)c2ccoc2C)c2ccccc2)cc1 (centres undefined)	-4%
Cc1ccc(CN2CCc3nc(N4CCN(C)CC4)ncc3C2)cc1	-5%
Oc1ccc(/C=C/c2cnccn2)cc1	4%
O=C1/C(=C/c2ccc(N3CCOCC3)o2)SC(=Nc2ccccc2)N1CCc1c[nH]c2ccccc12	79µM*
Nc1ccc(NC(=O)NC2CCCCC2)cc1[N+](=O)[O-]	21%
O=C(O)CNS(=O)(=O)c1ccc2c(c1)Cc1cc(S(=O)(=O)NCC(=O)O)ccc1-2	11%
Cc1ccc(C)c(N2CCN(c3nc4ccccc4c4nc(-c5cccnc5)nn34)CC2)c1	-7%
CC(C)Cn1c(N)c(C(=O)COC(=O)C2CCCCC2)c(=O)n(C)c1=O	?
O=C(Cn1c(=O)n(Cc2ccco2)c(=O)c2ccccc21)Nc1cccc(F)c1	-6%

# Other records follow.
SMILES	VDR inhibitor
Cn1nc(C(=O)Nc2cccc(C(=O)NC3CC3)c2)c2ccccc2c1=O	0%
O=C1CC(SC(=Nc2ccccc2)Nc2ccccc2)C(=O)N1c1cccc(Cl)c1 (centres undefined)	11%
CC(Sc1nnc(CC(C)c2ccccc2)n1N)C(N)=O (centres undefined)	0%
Cc1ccc(CNC(=O)C2COc3ccccc3C2)cc1 (centres undefined)	5%
CCCc1c(C(=O)Nc2cc(C(C)(C)C)on2)cnn1-c1ccccc1	-4%
Cc1cccc(C(=O)N2c3ncnn3C3(CCCCC3)[C@@H]3CCCC[C@@H]32)c1	11%
Cc1ccc(NC(=O)CN2C(=O)C(c3ccc(F)cc3)=NC2(C)C)c(C)c1	3%
Cc1cc(C)c(S(N)(=O)=O)c(C)c1-n1cnnn1	-5%
CC(=O)c1ccc(NC(=O)COC(=O)c2nc(Cl)ccc2Cl)cc1	-17%
Cc1snc(S(=O)(=O)/C(C#N)=N/Nc2ccc(C(F)(F)F)cc2)c1C#N	5%
CCOc1ccc(C(=O)N(Cc2ccc(N(C)C)cc2)C2CCS(=O)(=O)C2)cc1 (centres undefined)	-12%
O=S(=O)(c1ccccc1)c1cnc(-c2cccnc2)nc1-c1ccccc1	1%

# Additional structures:
SMILES	VDR inhibitor
CCOc1ccc(OCc2ccc(C(=O)N3CCOCC3)cc2)cc1	5%
CN(Cc1ccccc1)C(=C(Cl)Cl)C(=C1NCCN1)[N+](=O)[O-]	-5%
O=c1cc(CN2CCN(c3cccc(Cl)c3)CC2)c2cc(O)c(-c3ccccc3)cc2o1	-2%
O=S(=O)(c1ccc2ccccc2c1)N1CCN(S(=O)(=O)N2CCOCC2)CC1	5%
CN(C)c1ccc(S(=O)(=O)N2CCC(Cc3ccccc3)CC2)cn1	6%
O=C(Nc1ccc2c(c1)OCCO2)c1cccc(Cl)c1Cl	-4%
O=C(CSc1nc2ncc(Cl)cc2[nH]1)c1c[nH]c2ccccc12	-13%
CCCC(C(=O)n1nc(C)cc1C)C(NS(=O)(=O)c1ccc(C)cc1)c1ccccc1 (centres undefined)	4%
Cc1n[nH]c(=O)c2c(NC(=O)CSc3c(Cl)cccc3Cl)oc(C)c12	-9%
Cc1cc(C(=O)CSc2nnc(-c3ccco3)o2)c(C)n1CC1COc2ccccc2O1 (centres undefined)	9%
COc1ccccc1C=Cc1ccnc2ccccc12	-16%
COc1cccc(NC(=O)c2ccc3c(c2)OCO3)c1	-4%

# (more compounds)
SMILES	VDR inhibitor
CCc1cc2c(=O)c(-c3ccc4c(c3)OCCO4)c(C)oc2cc1OS(C)(=O)=O	-21%
COc1ccc(N(Cc2cc3ccccc3[nH]c2=O)S(=O)(=O)c2ccccc2)cc1	-3%
N#CC1=C(N)SC(N)=C(C#N)C1c1ccnc2ccccc12	-18%
CCCCOc1ccc(S(=O)(=O)Nc2ccc(-c3ccc(N4CCC(C)CC4)nn3)cc2)cc1	11%
CC(C)(C)CN1C(N)=NC[C@@H]1c1ccccc1	-8%
Cc1cc(OCC(=O)Nn2cnnc2)ccc1Br	-7%
CCC(CC)C(=O)Nc1nnc(S(=O)(=O)N2CCCc3ccccc32)s1	-2%
Cn1c(=O)n(Cc2ccco2)c(=N)c2c3c(sc21)CCCC3	-15%
COc1ccc(NC(=O)C2CCN(S(=O)(=O)c3cccc(-c4noc(C)n4)c3)CC2)cc1OC	8%
Cn1cccc1/C=N/NC(=O)C(O)c1ccccc1 (centres undefined)	11%
COc1ccc(NC(=O)Cn2nnc(C(=O)NCc3cccs3)c2N)cc1OC	-13%
O=C(Nc1ccccc1OC(F)F)c1ccc(Br)o1	-8%

# Other structures
SMILES	VDR inhibitor
CCCCC(=O)NNC(=O)N1c2ccccc2Sc2ccccc21	4%
O=c1c2ccccc2[nH]c(=S)n1Cc1cccnc1	-19%
Cn1cc2ccc(N)cc2n1	11%
O=C(COC(=O)CCSc1ccccc1)NCc1ccccc1	-9%
COc1ccc(Br)cc1/C=N/NC(=O)c1ccc(OC)c(OC)c1	?
Cc1ccc(NC(=O)CCC(=O)c2cc(C)sc2C)nc1	-13%
COc1cccc(NC(=O)CCN2CCN(C)CC2)c1	10%
COC(=O)c1cc2n(n1)CCN(Cc1ccccc1F)C2=O	-10%
CC(C)=C1SC(N2CCN(c3ccc(C)c(Cl)c3)CC2)=NC1=O	16%
COc1ccc(OC)c(C(=O)/C=C/c2cccnc2)c1	?
CC(=O)C1=C(C)NC(SCC(=O)c2ccc(F)cc2)=C(C#N)C1CC(C)C (centres undefined)	-22%
O=C(Nc1ccc(-c2nc3ccccc3[nH]2)cc1)c1c(F)c(F)c(F)c(F)c1F	-9%

# (next part)
SMILES	VDR inhibitor
CCS(=O)(=O)c1ccc2oc(Nc3cc(Cl)ccc3OC)nc2c1	-12%
CCCNC(=O)Cc1c(OC)ccc2cc(Br)ccc12	?
Cc1ccc2c(=O)oc(N(C)C)nc2c1	-15%
O=C(c1cc2nc(-c3ccc(Cl)cc3)cc(C(F)(F)F)n2n1)N1CCOCC1	5%
CCOC(=O)c1cc2c(=O)n3ccccc3nc2n(C(C)C)c1=NC(=O)c1c(-c2ccccc2Cl)noc1C	-8%
C=CCC(CC=C)(CNC(=O)C(=O)Nc1ccc(C)cc1)c1ccccc1	9%
Cc1ccc(Sc2c(C)[nH]n(C(C)(C)C)c2=O)cc1	-1%
Cc1ccc(NC2c3ncccc3C(=O)N2Cc2ccco2)c(C)c1 (centres undefined)	-8%
O=C(O)C1=CC[C@@H](c2ccc(Cl)cc2)N(S(=O)(=O)c2ccc(Cl)cc2)[C@H]1c1ccc(F)cc1	-25%
COc1cccc(NC(=O)CCN2C(=O)c3ccccc3Sc3ncccc32)c1	-9%&7%
O=C(NC(O)C(=O)c1ccccc1)c1cccs1 (centres undefined)	-8%
CCOC(=O)C1CCN(C(=O)c2ccccc2NC(=O)c2ccc(Br)cc2)CC1	-5%

# Additional entries.
SMILES	VDR inhibitor
COc1ccccc1CN1CCC2(CC1)CCN(C(=O)c1cccc(F)c1)CC2	0%
COc1cc(/C=N\NC(=O)CC(=O)NCCc2ccccc2)ccc1O	-19%
CC(=O)Nc1sc2c(c1C(c1cccs1)N1CCOCC1)CCCC2 (centres undefined)	-26%
CCOc1cc(N2CCOCC2)c(OCC)cc1NC(=O)COc1ncnc2ccccc12	3%
CCOC(=O)C1C(=O)N(C(=O)c2ccc(OC)cc2)CC1c1ccccc1 (centres undefined)	-13%
CC(C)(C)NC(=O)CSc1nnc(-c2ccccn2)n1Cc1ccccc1	-3%
O=C(O)CCCCCCCCc1cn(CC2CCCCC2)nn1	6%
CC1CCCN(C2=NC(=O)/C(=C/c3cn(-c4ccccc4)nc3-c3cccc(S(=O)(=O)N(C)C)c3)S2)C1 (centres undefined)	-1%
COc1ccccc1CNC(=O)CCNS(=O)(=O)c1ccc2c(c1)CC(C)N2C(C)=O (centres undefined)	-7%
CN(C)S(=O)(=O)c1cccc(C(=O)Nc2ccccc2Cl)c1	-8%
CCOc1ccc(CN(C(=O)c2cc(=O)c3cc(Cl)ccc3o2)C2CCS(=O)(=O)C2)cc1 (centres undefined)	15%
